# From PubChem
# MT1-MMP act inh: MT1-MMP (human) activation inhibition; AID 651647; 360,000 compounds, 0.061% hits; P50281; HT1080 RFP-PRO-GFP cells, GFP/RFP ratio fluorescence, overnight; percent of plate control window, DMSO zero; GFP/RFP ratio change, % at 20 µM;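 active = GFP/RFP ratio change of at least 30% with cell ATP level not reduced by more than half and red fluorescence within 50% of control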; note: strong numbers were not always called active
#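 Assay system – RFP-PRO-GFP reporter HT1080 cells · Compound dosing – single dose of 20 µM compound, 1% DMSO final · Incubation – overnight compound exposure at 37 °C · Measure – GFP/RFP fluorescence ratio · Benchmarks – DMSO wells and RFP-L50D-GFP cells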
# UUG fidelity: alters start codon recognition fidelity in yeast; S. cerevisiae UUG-firefly luciferase reporter, luminescence/redox ratio; activity score, % at 18.7 µM; 350,000 compounds, 0.13% hits; AID 602363;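 active = replicate mean at a twofold rise or more, about +100% in these data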;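 note: firefly luciferase made from a UUG start codon reports start codon fidelity; reporter light over untreated wells divided by growth signal over untreated wells; some hits fall short of that in this replicate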
# Rce1 inh: yeast Ras-converting enzyme inhibition; Q03530; yeast membranes, quenched prenylated peptide cleavage fluorescence; calls only; 290,000 compounds, 0.27% hits;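 active = fall in fluorescence gain of 50% or more versus controls, with final raw signal at or below 3038400; inconclusive = same 50% fall but final raw signal above 3038400; inactive = fall in fluorescence gain under 50%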;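 note: plate controls were neutral control wells for no effect and wells lacking membranes for full effect; tested at 10 µM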
# Target sequence (Q03530 whole entry, looked up): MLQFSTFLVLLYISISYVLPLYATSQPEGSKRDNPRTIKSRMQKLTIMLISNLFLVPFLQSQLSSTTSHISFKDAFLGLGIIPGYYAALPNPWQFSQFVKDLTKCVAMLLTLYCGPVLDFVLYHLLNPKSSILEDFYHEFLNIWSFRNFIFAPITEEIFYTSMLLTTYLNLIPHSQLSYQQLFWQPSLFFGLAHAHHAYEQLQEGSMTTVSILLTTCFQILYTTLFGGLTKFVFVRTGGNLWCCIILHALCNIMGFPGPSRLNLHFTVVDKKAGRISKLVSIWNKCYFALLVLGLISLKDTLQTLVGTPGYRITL
# Env fusion inh: blocks HIV Env-driven cell-cell fusion. inhibition, % at 12.3 µM. 360,000 compounds, 1.1% hits. HeLa-JRFL Env/CEM21 cell fusion, luciferase;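 active = mean replicate inhibition score of at least 50 and every replicate individually at or above 50; inconclusive = only one of the two criteria met; inactive = mean below 50 and not all replicates reaching 50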;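 note: 0% = plate neutral controls and 100% = maraviroc near 300 nM; one replicate is shown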
# PABP polyA inh: PABP-poly(A) binding inhibition | P11940 | PABP-poly(A) RNA binding, fluorescence polarization | inhibition, % at 35 µM | 290,000 compounds, 1% hits;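 active = 50% or more with normal probe brightness, or confirmed in later tests; inconclusive = above 50% with abnormal brightness, or retests that disagree; inactive = below 50% or failed in later tests; about a fifth of its hits are not listed in these tables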;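 note: calls also rest on retests at 20 µM and on dose response follow-up; controls were probe without protein and protein plus probe with vehicle; some compounds called inactive have numbers as strong as hits; many hits fall short of the cut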
# eIF4H inh: inhibitors of RNA binding by human eIF4H; inhibition, % at 35 µM; 290,000 compounds, 0.94% hits; Q15056; eIF4H fluorescence polarization binding assay; AID 2012;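 active = 50% or more with normal probe brightness, or confirmed in later tests; inconclusive = above 50% with abnormal brightness, or retests that disagree; inactive = below 50% or failed in later tests; about a fifth of its hits are not listed in these tables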;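 note: calls also rest on retests at 20 µM and on dose response follow-up; 0% = protein and probe with vehicle and 100% = probe without protein; strong numbers were not always called active; many hits fall short of the cut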
# CSC inhib: cancer stem cell inhibition. cancer stem cell-like cells viability, luminescence. inhibition, % at 7.5 µM. 300,000 compounds, 1.1% hits. AID 2717;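 active = mean at 75% or more and at least half the replicates too; inconclusive = mean and replicates disagree; tested in HMLE shEcad cells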;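 note: 0% = median of negative and 100% = median of positive control wells; the first replicate is given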
# MT1-MMP act inh RFP: further read-out of MT1-MMP act inh, marked with its call; RFP signal change, %; measured here: RFP expression control read;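 0 = vehicle wells; hits needed this value within 50% of zero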
# An asterisk follows results filed as active; i = inactive; ? = inconclusive; · = no result given; + = active, no number. The list is partial; count on the stated rates, not on these rows.
# The opening 17 entries, ahead of the listing:
SMILES,MT1-MMP act inh,MT1-MMP act inh RFP,UUG fidelity,Rce1 inh,Env fusion inh,PABP polyA inh,eIF4H inh,CSC inhib
Cc1cccn2c(=O)c3c(nc12)N1CCC(Cc2ccccc2)CC1C1(C3)C(=O)N(C)C(=O)N(C)C1=O (centres undefined),-15,-14,11,i,-495,-3,7,-16
Clc1ccc(C[n+]2c(-c3ccccc3)cc(-c3ccccc3)cc2-c2ccccc2)cc1,3,-32,-7,+,107*,·,·,5
COc1ccc(C(=O)CC(c2ccc3c(c2)OCO3)c2c(O)c3ccccc3oc2=O)cc1OC (centres undefined),3,2,-12,·,18,·,·,·
COc1cccc(-n2c(CN3CCOCC3)nc3ccc([N+](=O)[O-])cc3c2=O)c1,-2,-2,-12,i,26,-1,-1,-17
CCOC(=O)C1=C(C)c2ccccc2OC1(C(=O)OCC)c1ccccc1 (centres undefined),-3,-3,7,·,-39,·,·,·
c1ccc(C2=NP(N3CCOCC3)(N3CCOCC3)=NC(N3CCOCC3)=N2)cc1,·,·,·,i,·,-8,-6,·
CC1=C(C(=O)O)N2C(=O)C(NC(=O)Cc3ccccc3)C2SC1 (centres undefined),-4,-3,-22,i,15,-1,-4,-3
CCN(CC)CCN=C(C)c1c(O)n(-c2ccccc2OC)c(=O)[nH]c1=O,0,0,-12,i,·,-2,-4,-6
O=C(C(=O)N1CCOCC1)c1cn(Cc2c(F)cccc2Cl)c2ccccc12,2,3,·,i,12,2,10,-4
CC(=NCCN1CCCCC1)c1c(O)n(-c2ccc(Cl)cc2)c(=O)[nH]c1=O,-6,1,-6,i,·,0,-13,-5
CCN1CCC2(CC1)NC(=O)c1ccccc1O2,4,3,·,i,-2,7,7,·
Cc1cc(OCC(=O)NCc2ccncc2)c2c3c(c(=O)oc2c1)CCC3,3,-1,-21,i,7,-2,-6,-22
ON1C2CCCCC2N(O)C1c1ccccc1F (centres undefined),0,3,-21,i,·,-9,3,-8
CN1CCN(c2nc(N(C)C)oc(=O)c2C#N)CC1,4,-6,-10,i,-38,7,-2,-8
Cc1cc(C(=O)N2CCC3(CC2)OCCO3)cs1,2,2,-9,i,-1,9,6,-2
COCCCn1c(N)c(C(=O)Nc2ccccc2)c2nc3ccccc3nc21,-5,-4,-13,i,29,0,-2,33
Cc1cccc(C)c1-n1nnnc1C(c1ccccc1OC(F)(F)F)N1CCC(n2c(=O)[nH]c3ccccc32)CC1 (centres undefined),-11,-16,-13,·,-56,·,·,·

# The list itself, previewed entries included:
SMILES,MT1-MMP act inh,MT1-MMP act inh RFP,UUG fidelity,Rce1 inh,Env fusion inh,PABP polyA inh,eIF4H inh,CSC inhib
Cc1cccn2c(=O)c3c(nc12)N1CCC(Cc2ccccc2)CC1C1(C3)C(=O)N(C)C(=O)N(C)C1=O (centres undefined),-15,-14,11,i,-495,-3,7,-16
Clc1ccc(C[n+]2c(-c3ccccc3)cc(-c3ccccc3)cc2-c2ccccc2)cc1,3,-32,-7,+,107*,·,·,5
COc1ccc(C(=O)CC(c2ccc3c(c2)OCO3)c2c(O)c3ccccc3oc2=O)cc1OC (centres undefined),3,2,-12,·,18,·,·,·
COc1cccc(-n2c(CN3CCOCC3)nc3ccc([N+](=O)[O-])cc3c2=O)c1,-2,-2,-12,i,26,-1,-1,-17
CCOC(=O)C1=C(C)c2ccccc2OC1(C(=O)OCC)c1ccccc1 (centres undefined),-3,-3,7,·,-39,·,·,·
c1ccc(C2=NP(N3CCOCC3)(N3CCOCC3)=NC(N3CCOCC3)=N2)cc1,·,·,·,i,·,-8,-6,·
CC1=C(C(=O)O)N2C(=O)C(NC(=O)Cc3ccccc3)C2SC1 (centres undefined),-4,-3,-22,i,15,-1,-4,-3
CCN(CC)CCN=C(C)c1c(O)n(-c2ccccc2OC)c(=O)[nH]c1=O,0,0,-12,i,·,-2,-4,-6
O=C(C(=O)N1CCOCC1)c1cn(Cc2c(F)cccc2Cl)c2ccccc12,2,3,·,i,12,2,10,-4
CC(=NCCN1CCCCC1)c1c(O)n(-c2ccc(Cl)cc2)c(=O)[nH]c1=O,-6,1,-6,i,·,0,-13,-5
CCN1CCC2(CC1)NC(=O)c1ccccc1O2,4,3,·,i,-2,7,7,·
Cc1cc(OCC(=O)NCc2ccncc2)c2c3c(c(=O)oc2c1)CCC3,3,-1,-21,i,7,-2,-6,-22
ON1C2CCCCC2N(O)C1c1ccccc1F (centres undefined),0,3,-21,i,·,-9,3,-8
CN1CCN(c2nc(N(C)C)oc(=O)c2C#N)CC1,4,-6,-10,i,-38,7,-2,-8
Cc1cc(C(=O)N2CCC3(CC2)OCCO3)cs1,2,2,-9,i,-1,9,6,-2
COCCCn1c(N)c(C(=O)Nc2ccccc2)c2nc3ccccc3nc21,-5,-4,-13,i,29,0,-2,33
Cc1cccc(C)c1-n1nnnc1C(c1ccccc1OC(F)(F)F)N1CCC(n2c(=O)[nH]c3ccccc32)CC1 (centres undefined),-11,-16,-13,·,-56,·,·,·
CCN1CCN(Cc2nc3ccc([N+](=O)[O-])cc3c(=O)n2-c2ccccc2F)CC1,-10,-1,-5,i,-12,3,-4,4
COc1ccc(N=C(C)c2c(O)n(C)c(=O)n(C)c2=O)c(OC)c1,7,-1,-11,i,·,-1,7,-9
Cc1ccccc1-c1nc(CS(=O)CC(=O)N2CCC3(CC2)OCCO3)c(C)o1 (centres undefined),-6,-4,-3,i,-31,-10,-8,-1
COC1=CCC2([N+](=O)[O-])CN(C)CC1([N+](=O)[O-])C2 (centres undefined),2,3,·,i,13,-3,-14,-5
c1ccc2c(CN3CCCCC3)c[nH]c2c1,-4,5,-9,i,15,1,-15,4
C[C@]12CC[C@H](O)C[C@H]1CC[C@@H]1[C@@H]2CC[C@]2(C)[C@@H](C3=CC(=O)OC3)CC[C@]12O,-34,-30,-3,·,?,·,·,95*
Cc1cccc(CCNCc2cc3cccc(C)c3[nH]c2=O)c1,5,4,-9,i,12,-12,4,9
CCNC(=O)N1Cc2ccccc2-n2nncc2C1,1,3,-11,·,-16,·,·,·
O=C(NC(=O)c1c(F)cccc1F)Nc1cc(Cl)c(F)c(Cl)c1F,4,1,-21,i,20,7,-4,0
Cc1nn(C2CCOC(C)(C)C2)c2c1C(c1ccc(OC(C)C)cc1)SCC(=O)N2 (centres undefined),2,-10,-2,i,-74,-10,-7,-8
COC(=O)C1=C(c2ccc(F)cc2OCc2ccccc2)C[C@@H]2CC[C@H]1N2C(=O)NCc1ccc2[nH]ccc2c1,-4,-5,-6,·,-24,·,·,10
NC(=O)CN1CC(c2ccccc2)CC1=O (centres undefined),7,5,-14,i,·,-4,-6,-13
CC/C(=N\NC(N)=O)c1c(O)[nH]c(=O)[nH]c1=O,-1,-2,·,i,3,6,-4,-3
N=C1c2ccccc2CN1NC(=O)c1ccc(Br)cc1,-3,0,-10,i,-15,-2,-5,-6
O=P1(c2ccccc2)Nc2ccccc2N1c1ccccc1 (centres undefined),6,-5,-31,·,11,·,·,·
COc1ccc(C(=O)CN2CCCCC2)cc1,-1,1,·,i,-4,-8,3,-12
CC(=O)C1C2c3ccccc3OC1(C)N=c1s/c(=C/c3cnn(C)c3)c(=O)n12 (centres undefined),-3,-6,-11,i,·,12,1,7
C=CC[C@@H](C)CC(=O)C(CCCN=[N+]=[N-])SOOc1ccccc1 (some centres undefined),-1,-4,2,·,-12,·,·,0

# Quoted from the entries so far, 2 compounds:
SMILES,MT1-MMP act inh,MT1-MMP act inh RFP,UUG fidelity,Rce1 inh,Env fusion inh,PABP polyA inh,eIF4H inh,CSC inhib
Cc1nn(C2CCOC(C)(C)C2)c2c1C(c1ccc(OC(C)C)cc1)SCC(=O)N2 (centres undefined),2,-10,-2,i,-74,-10,-7,-8
COC(=O)C1=C(c2ccc(F)cc2OCc2ccccc2)C[C@@H]2CC[C@H]1N2C(=O)NCc1ccc2[nH]ccc2c1,-4,-5,-6,·,-24,·,·,10
